Bioassay records as filed in PubChem.
Vaccinia inh: Vaccinia orthopox stage-specific inhibition. activity change (mCherry), % (no concentration beside the values). 89,000 compounds, 0.01% hits. Vaccinia-infected cells, mCherry/Venus stage reporter fluorescence; hits give low values; some inactives read as strong as hits;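 active means mCherry past -33% and 40 or more points under the early reporter, replicates agreeing; inconclusive means past -33% without that gap or agreement; tested in A549 cells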;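 further: scaled between vehicle wells and reference inhibitor wells; 23 nL library stock went into each well; one replicate is shown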
Vaccinia inh Venus: further read-out of Vaccinia inh, marked with its call; activity change (Venus), %; measured here: Venus reporter, other viral stage;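 negative = less Venus signal; first of two replicates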
* = called active by the depositor; ? = inconclusive; · = no result given. Not all compounds are listed; rates above refer to the full screens.

Compound,Vaccinia inh Venus,Vaccinia inh
N#C[C@@H]1[C@H](c2ccc(-c3cncnc3)cc2)[C@@H](CO)N1C(=O)Cc1ccccc1,-19,-24
CCC(=O)Nc1ccc2c(c1)OC[C@H](C)N(Cc1ccncc1)C[C@H](C)[C@H](OC)CN(C)C2=O,20,27
COCc1cn(CC[C@H]2CC[C@@H](NC(=O)Nc3ccc(F)cc3)[C@H](CO)O2)nn1,1,3
CCCNC(=O)Nc1ccc2c(c1)OC[C@@H](C)N(CCC(F)(F)F)C[C@@H](C)[C@H](OC)CN(C)C2=O,10,5
CN(C)C(=O)C[C@H]1CC[C@H]2[C@@H](COC[C@@H](O)CN2S(=O)(=O)c2ccccc2)O1,-1,9
CC(=O)N1[C@H](CO)[C@H](c2ccccc2)[C@@H]1CNC(=O)c1ccncc1,5,7
COc1cccc(CN2[C@H](CO)[C@@H](c3ccccc3)C23CN(Cc2ccccc2OC)C3)c1,-15,-29
Cc1ccc(S(=O)(=O)N(C)C[C@H]2Oc3c(NC(=O)Nc4ccc5c(c4)OCO5)cccc3C(=O)N([C@@H](C)CO)C[C@@H]2C)cc1,-6,-9
C[C@H](CO)N1C[C@H](C)[C@H](CN(C)C(=O)Nc2ccccc2)Oc2c(NC(=O)C3CCCCC3)cccc2C1=O,6,2
C[C@@H]1CN([C@H](C)CO)C(=O)Cc2cc(NS(=O)(=O)c3ccc(Cl)cc3)ccc2O[C@@H]1CN(C)C(=O)Nc1ccccc1,2,4
CC(C)NC(=O)N(C)C[C@@H]1OCCCC[C@H](C)Oc2ccc(NC(=O)NC3CCCCC3)cc2C(=O)N([C@H](C)CO)C[C@@H]1C,-1,3
O=C(NCc1ccccc1)C(c1ccccc1)N(Cc1ccccc1)C(=O)Cc1ccccc1 (stereo not given),-28,-33
O=C(NCC[C@H]1CC[C@H](NC(=O)C2CCOCC2)[C@H](CO)O1)Nc1ccc(Cl)cc1,4,-2
Cc1ccccc1S(=O)(=O)N1CC[C@H]2[C@H](CO)Nc3ccc(-c4ccccc4F)cc3[C@H]21,-13,-20
COCC(=O)N[C@H]1CC[C@H](CC(=O)N2CCCCC2)O[C@@H]1CO,1,1
CCC(=O)N1CC(=O)N2[C@H](CO)[C@@H](c3ccc(-c4ccccc4F)cc3)[C@H]2C1,-5,3
O=C(C[C@H]1C[C@H]2c3cc(NC(=O)Nc4ccccc4F)ccc3O[C@H]2[C@@H](CO)O1)NCc1ccncc1,1,-2
CCCc1cn(CC[C@@H]2CC[C@@H](NC(=O)Cc3cccnc3)[C@@H](CO)O2)nn1,15,17
O=C(C[C@H]1C[C@@H]2c3cc(NC(=O)CC4CC4)ccc3O[C@@H]2[C@@H](CO)O1)NCCN1CCCCC1,6,9
CCCC#Cc1ccc2c(c1)O[C@@H](CN(C)C(C)=O)[C@H](C)CN([C@@H](C)CO)S2(=O)=O,-2,0
COCCNC(=O)C[C@H]1CC[C@H]2[C@@H](COC[C@@H](O)CN2S(=O)(=O)c2ccccc2C)O1,1,8
COc1cccc(S(=O)(=O)Nc2ccc3c(c2)[C@H]2C[C@H](CC(=O)NCc4ccccc4F)O[C@@H](CO)[C@H]2O3)c1,8,8
CO[C@@H]1CN(C)C(=O)c2cc(NS(=O)(=O)c3ccccc3Cl)ccc2OC[C@H](C)NC[C@@H]1C,11,3
COCC(=O)N(C)C[C@@H]1Oc2cc(C#CCC3CCCC3)ccc2S(=O)(=O)N([C@H](C)CO)C[C@@H]1C,·,?
CN(C)CC#Cc1ccc([C@@H]2[C@H]3CN(C(=O)c4ccccc4)CC(=O)N3[C@H]2CO)cc1,6,12
Cc1ccc(S(=O)(=O)N(C)C[C@H]2OCCCC[C@@H](C)Oc3ccc(NS(=O)(=O)c4ccccc4)cc3C(=O)N([C@@H](C)CO)C[C@H]2C)cc1,·,?
COc1ccccc1C#Cc1ccc2c(c1)O[C@@H](CN(C)Cc1cccnc1)[C@H](C)CN([C@@H](C)CO)S2(=O)=O,·,?
CO[C@@H]1CN(C)C(=O)c2ccc(NC(=O)CC(F)(F)F)cc2OC[C@@H](C)N(S(=O)(=O)c2cn(C)cn2)C[C@@H]1C,18,4
CNC[C@H]1Oc2c(NS(=O)(=O)c3cn(C)cn3)cccc2C(=O)N([C@H](C)CO)C[C@@H]1C,0,3
CCCNC(=O)N1[C@@H]2c3ccc(-c4ccc(F)cc4)c(=O)n3C[C@@H]2[C@@H](CO)[C@@H]1C(=O)N1CCCCC1,0,-1

One compound at a time, from the list above.
Profile of COc1cccc(S(=O)(=O)Nc2ccc3c(c2)[C@H]2C[C@H](CC(=O)NCc4ccccc4F)O[C@@H](CO)[C@H]2O3)c1 = Vaccinia inh Venus = 8; Vaccinia inh = 8
Profile of N#C[C@@H]1[C@H](c2ccc(-c3cncnc3)cc2)[C@@H](CO)N1C(=O)Cc1ccccc1 = Vaccinia inh Venus = -19; Vaccinia inh = -24

(list continues)
Compound,Vaccinia inh Venus,Vaccinia inh
CO[C@H]1CN(C)C(=O)c2cc(NC(C)=O)ccc2OC[C@@H](C)N(CCC(F)(F)F)C[C@H]1C,8,-2
CN1[C@@H]2Cn3c(ccc(/C=C/c4ccccc4)c3=O)[C@H]1[C@@H](C(=O)NC1CCC1)[C@@H]2CO,-7,-1
Cc1ccc(S(=O)(=O)N(C)C[C@H]2OCCCC[C@H](C)Oc3ccc(NC(=O)Cc4ccccc4)cc3C(=O)N([C@H](C)CO)C[C@H]2C)cc1,-15,-10
COc1ccccc1-c1ccc([C@H]2[C@H](CO)N3CCCCN(C(=O)c4cccnc4)C[C@@H]23)cc1,-4,-6
Cc1ccc(S(=O)(=O)N(C)C[C@@H]2Oc3ccc(NS(=O)(=O)c4ccccc4)cc3CC(=O)N([C@H](C)CO)C[C@H]2C)cc1,6,13
CN1C[C@H]2[C@@H](c3ccccc31)[C@@H](CO)N2C(=O)C1CCCC1,7,3
C[C@@H]1CCCCO[C@@H](CN(C)CC2CC2)[C@H](C)CN([C@@H](C)CO)C(=O)c2cc(NC(=O)NC3CCCCC3)ccc2O1,1,8
O=C(Nc1ccccc1)N1C[C@H]2[C@@H](c3ccccc31)[C@@H](CO)N2CC1CCCC1,-16,-24
CCCNC(=O)N(C)C[C@@H]1Oc2ncc(-c3ccc(F)cc3)cc2C(=O)N([C@H](C)CO)C[C@@H]1C,12,23
COc1ccc(NC(=O)N[C@H]2CC[C@H](CCNC(=O)c3ccccc3F)O[C@@H]2CO)cc1,18,15
C[C@H]1CCCCO[C@H](CN(C)C(=O)NC2CCCCC2)[C@@H](C)CN([C@@H](C)CO)C(=O)c2cc(NS(=O)(=O)c3ccccc3)ccc2O1,-8,6
COc1ccc(NC(=O)Nc2ccc3c(c2)C(=O)N([C@@H](C)CO)C[C@@H](C)[C@H](CN(C)Cc2ccccc2)O3)cc1,-14,-16
CO[C@@H]1CN(C)C(=O)c2cc(NC(=O)C3CCCC3)ccc2OC[C@@H](C)N(C(=O)CC2CC2)C[C@@H]1C,4,0
C[C@H](CO)N1C[C@H](C)[C@H](CN(C)Cc2ccncc2)Oc2c(NC(=O)C3CCCCC3)cccc2C1=O,8,8
CO[C@@H]1CN(C)C(=O)c2ccc(NS(=O)(=O)c3cccc(F)c3)cc2OC[C@@H](C)N(C(=O)Cc2cccnc2)C[C@@H]1C,11,14
CO[C@@H]1CN(C)C(=O)c2cc(NC(=O)C3CCCC3)ccc2OC[C@@H](C)N(C(=O)CC2CC2)C[C@H]1C,10,5
COc1cccc(S(=O)(=O)N(C)C[C@H]2OCc3cn(nn3)CCCC(=O)N([C@H](C)CO)C[C@@H]2C)c1,2,4
C[C@@H]1CN([C@@H](C)CO)C(=O)Cc2cc(NS(=O)(=O)c3cn(C)cn3)ccc2O[C@H]1CN(C)C(=O)Nc1cccc2ccccc12,6,3
COCCNC(=O)C[C@H]1C[C@@H]2c3cc(NC(=O)NC4CCCC4)ccc3O[C@@H]2[C@@H](CO)O1,-2,-3
CC(C)CC#Cc1ccc2c(c1)O[C@@H](CN(C)C(=O)Nc1ccccc1F)[C@@H](C)CN([C@@H](C)CO)S2(=O)=O,·,?

Rewritten field by field: part of the list above
CO[C@@H]1CN(C)C(=O)c2cc(NC(=O)C3CCCC3)ccc2OC[C@@H](C)N(C(=O)CC2CC2)C[C@H]1C
  Vaccinia inh Venus = 10
  Vaccinia inh = 5

COc1cccc(S(=O)(=O)N(C)C[C@H]2OCc3cn(nn3)CCCC(=O)N([C@H](C)CO)C[C@@H]2C)c1
  Vaccinia inh Venus = 2
  Vaccinia inh = 4

C[C@@H]1CN([C@@H](C)CO)C(=O)Cc2cc(NS(=O)(=O)c3cn(C)cn3)ccc2O[C@H]1CN(C)C(=O)Nc1cccc2ccccc12
  Vaccinia inh Venus = 6
  Vaccinia inh = 3

Later entries.
Compound,Vaccinia inh Venus,Vaccinia inh
CCC(=O)Nc1ccc2c(c1)C(=O)N(C)[C@H]1CC[C@H](CC(=O)NCc3ccccc3)O[C@@H]1CO2,4,5
C/C=C/c1ccc2c(c1)O[C@@H](CN(C)C(=O)Nc1ccc(F)cc1)[C@H](C)CN([C@H](C)CO)S2(=O)=O,-26,-31
C[C@H](CO)N1C[C@H](C)[C@H](CN(C)S(=O)(=O)c2cccs2)OCCCC[C@H](C)Oc2ccc(NS(=O)(=O)c3cccs3)cc2C1=O,·,?
CC(C)CC#Cc1ccc2c(c1)O[C@@H](CN(C)Cc1ccc(F)cc1)[C@@H](C)CN([C@H](C)CO)S2(=O)=O,-19,-20
O=C(C[C@H]1CC[C@H](NS(=O)(=O)c2ccc(F)cc2)[C@H](CO)O1)NCCc1ccncc1,9,14
Cc1noc(C)c1NC(=O)N(C)C[C@@H]1Oc2ccc(NS(=O)(=O)c3ccc(F)cc3)cc2CC(=O)N([C@@H](C)CO)C[C@H]1C,17,4
CC(C)NC(=O)Nc1ccc2c(c1)CC(=O)N([C@H](C)CO)C[C@H](C)[C@H](CN(C)Cc1ccc(C(=O)Nc3ccccc3N)cc1)O2,6,8
CCCC#Cc1cnc2c(c1)C(=O)N([C@H](C)CO)C[C@@H](C)[C@@H](CN(C)Cc1ccncc1)O2,7,18
CCCC#Cc1cnc2c(c1)C(=O)N([C@@H](C)CO)C[C@H](C)[C@H](CN(C)C(=O)NCCC)O2,5,-4
C[C@@H]1CCCCO[C@@H](CN(C)S(=O)(=O)c2cn(C)cn2)[C@@H](C)CN([C@H](C)CO)C(=O)c2cc(NC(=O)CCC(F)(F)F)ccc2O1,-1,12
O=S(=O)(c1ccc(F)cc1)N1C[C@H]2[C@@H](c3ccccc31)[C@@H](CO)N2Cc1ccccc1Cl,·,?
COc1ccc(S(=O)(=O)N[C@@H]2C=C[C@H](CC(=O)N3CCc4ccccc4C3)O[C@H]2CO)cc1,-18,-24
CCNC(=O)c1cc2c(c(-c3cccc(-c4cccnc4)c3)n1)[C@@H](CCO)N(S(C)(=O)=O)C2,7,12
C[C@@H]1CCCCO[C@H](CN(C)Cc2ccccc2)[C@@H](C)CN([C@@H](C)CO)C(=O)c2cc(NC(=O)Cc3ccccc3)ccc2O1,-22,-24
CC(=O)N(C)C[C@@H]1Oc2ncc(-c3cccc(F)c3)cc2C(=O)N([C@@H](C)CO)C[C@H]1C,4,13
COc1ccc(S(=O)(=O)Nc2ccc3c(c2)C(=O)N([C@H](C)CO)C[C@@H](C)[C@H](CN(C)C(=O)C2CCCCC2)OCCCC[C@H](C)O3)cc1,·,?
C[C@@H]1CN([C@H](C)CO)C(=O)c2cc(NS(=O)(=O)c3cccs3)ccc2O[C@@H](C)CCCCO[C@@H]1CN(C)S(=O)(=O)c1ccc(F)cc1,-16,-15
C[C@H]1CN([C@@H](C)CO)C(=O)c2cccc(NC(=O)Nc3ccccc3)c2O[C@@H]1CN(C)Cc1ccc(-c2ccccc2)cc1,-7,-2
O=C(c1ccccc1)N1C[C@@H]2[C@H](c3ccccc31)[C@H](CO)N2C(=O)CN1CCOCC1,7,7
CCCNC(=O)N1CC(=O)N2[C@@H](CO)[C@@H](c3ccc(C#CCC4CCCC4)cc3)[C@@H]2C1,-19,-24
C[C@H](CO)N1C[C@H](C)[C@@H](CN(C)Cc2ccc(Oc3ccccc3)cc2)Oc2c(NC(=O)c3nc4ccccc4s3)cccc2C1=O,-26,-34
CCCC#Cc1ccc2c(c1)O[C@H](CN(C)S(=O)(=O)c1cccc(F)c1)[C@H](C)CN([C@H](C)CO)S2(=O)=O,·,?
C[C@@H]1CN([C@H](C)CO)C(=O)c2cc(C#CC3(O)CCCC3)cnc2O[C@H]1CN(C)C(=O)CN(C)C,21,22
C[C@@H]1CCCCO[C@@H](CN(C)Cc2ccc3c(c2)OCO3)[C@H](C)CN([C@@H](C)CO)C(=O)c2cc(N(C)C)ccc2O1,-7,-18
COc1ccc2c3c([nH]c2c1)[C@@H](CO)N(C(=O)NC(C)C)CC31CCN(C(=O)NC(C)C)CC1,5,19
CCCNC(=O)N1CC2(CCN(Cc3nccs3)CC2)c2c([nH]c3cc(OC)ccc23)[C@H]1CO,0,12
CO[C@@H]1CN(C)C(=O)c2cc(NC(=O)C3CCC3)ccc2OC[C@H](C)N(C(=O)NC(C)C)C[C@H]1C,2,6
C[C@H]1CN([C@@H](C)CO)S(=O)(=O)c2ccc(Br)cc2O[C@H]1CN(C)S(C)(=O)=O,6,11
COc1ccc(NC(=O)N(C)C[C@H]2Oc3ccc(NC(=O)CCCCCC(=O)Nc4ccccc4N)cc3CC(=O)N([C@H](C)CO)C[C@H]2C)cc1,-6,-10
CO[C@@H]1CN(C)C(=O)c2ccc(NC(=O)c3ccccc3)cc2OC[C@@H](C)N(C(=O)CN(C)C)C[C@H]1C,12,-3
